rRNA inh HTS: reduced GFP signal of wild-type E. coli, primary screen, bacterial rRNA inhibitor project, GFP/RFP fluorescence, OD600, single point; 350,000 compounds, 1.6% hits; GFP signal change (wild-type ribosome), % (concentration not given with the values); E. coli WT GFP vs humanized-ribosome RFP mutants, 24 h; hits give low values; DMSO median 0, no signal -100;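 active = significant combined selectivity score with lowered wild-type GFP, culture density cut under 30%, mutant RFP and density less affected; inactive = any of these conditions unmet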; note: one replicate is shown; some compounds called inactive have numbers as strong as hits
rRNA inh HTS OD600: second read-out of rRNA inh HTS, no call of its own (marks repeat the call); OD600 change, %; measured here: OD600 growth;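 optical density of the mix in the first replicate; 0 = DMSO median and -100 = no signal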
rRNA inh HTS RFP: further read-out of rRNA inh HTS, marked with its call; RFP signal change, %; measured here: RFP humanized mutant strains;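 first replicate; 0 = DMSO median and -100 = no signal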
Numbers without * were called inactive; & = joins results of further samples. These rows are one share of the data (hit frequency here may not be typical).

rRNA inh HTS	rRNA inh HTS OD600	rRNA inh HTS RFP	SMILES
-3.7	-5.9	-4.0	COc1cc(OCc2ccccc2)c(CC(=O)O)c([N+](=O)[O-])c1
-5.2	-12.6	0.6	COC(=O)C[C@@H]1CC[C@H]2[C@H](COc3ccc(NC(=O)Nc4ccc(C)cc4)cc3C(=O)N2C)O1
-0.9	9.1	-3.6	COc1ccc2c3c(n(C)c2c1)[C@H](CO)N(C(=O)c1ccc(F)cc1)CC31CCN(C(C)=O)CC1
2.2	1.8	-0.1	COCC(=O)Nc1ccc2c(c1)C(=O)N(C)C[C@@H](OC)[C@@H](C)CN(C(=O)NC(C)C)[C@@H](C)CO2
1.8	9.2	0.8	C[C@@H]1CCCCO[C@H](CN(C)S(=O)(=O)c2ccc(Cl)cc2)[C@@H](C)CN([C@@H](C)CO)C(=O)c2cc(NS(=O)(=O)c3ccccc3)ccc2O1
0.3	0.8	-2.7	CC(C)NC(=O)C1C(c2ccc(C(F)(F)F)cc2)=Nc2ccccc2N1C(=O)c1cc2ccccc2[nH]1 (stereo unspecified)
3.2	4.8	-0.5	CNC[C@@H]1Oc2ccc(NS(=O)(=O)c3ccc(Cl)cc3)cc2CC(=O)N([C@@H](C)CO)C[C@@H]1C
2.4	7.7	-2.7	CC=Cc1ccc2n(c1=O)C[C@@H]1[C@@H](CO)[C@H](C(=O)N3CCCCC3)[C@H]2N1C(=O)C1CC1 (mixture of isomers)
-0.9	5.8	0.9	C[C@@H]1CN([C@H](C)CO)C(=O)c2cc(NC(=O)CCCN(C)C)ccc2O[C@@H]1CN(C)S(=O)(=O)c1cn(C)cn1
-3.3	-6.8	0.0	C[C@@H]1CN([C@H](C)CO)C(=O)c2cc(NS(=O)(=O)c3ccccc3)ccc2O[C@@H]1CN(C)S(=O)(=O)c1cccs1
0.3	4.2	-2.1	COc1ccc(CN(C)C[C@@H]2OCCCC[C@@H](C)Oc3ccc(NC(=O)NC(C)C)cc3C(=O)N([C@@H](C)CO)C[C@H]2C)cc1
-9.2	-14.3	4.7	Cc1ccc(S(=O)(=O)NCC[C@H]2CC[C@H](NS(=O)(=O)c3ccccc3Cl)[C@H](CO)O2)cc1
-46.6	-72.2	-17.5	C=CCC1(CC=C)CCCN1C(=O)C1CCC(=O)N(Cc2ccc(Cl)cc2)C1 (stereo unspecified)
2.1	4.7	0.2	CN(C)C(=O)[C@@H]1[C@@H](CO)[C@@H]2Cn3c(cccc3=O)[C@@H]2N1CC1CCCCC1
-5.3	-1.9	-2.7	CC(C)[C@H](NC(=O)c1ccco1)C(=O)Nc1ccc(N2CCCCCC2)cc1
-5.6	-1.3	-1.2	COc1ccc(S(=O)(=O)N(C)C[C@H]2Oc3ncc(Br)cc3C(=O)N([C@@H](C)CO)C[C@@H]2C)cc1
9.3	12.0	-2.5	CC(=O)Nc1ccc(S(=O)(=O)N[C@@H](C)C(=O)OCC(=O)c2ccc(Br)s2)cc1
4.5	10.3	-2.8	C[C@@H]1CN([C@H](C)CO)C(=O)c2cc(NC(=O)c3ccncc3)ccc2O[C@H]1CN(C)S(C)(=O)=O
3.1	9.3	-1.8	COc1ccc2c3c([nH]c2c1)[C@@H](CO)N(C(=O)CN(C)C)CC31CCN(Cc2ccncc2)CC1
2.7	12.2	2.6	C[C@@H]1CCCCO[C@@H](CN(C)C(=O)c2ccccc2)[C@@H](C)CN([C@H](C)CO)C(=O)c2cc(NC(=O)c3ccncc3)ccc2O1
0.2	-4.3	0.1	COCC(=O)N(C)C[C@H]1Oc2ncc(-c3ccc(F)cc3)cc2C(=O)N([C@H](C)CO)C[C@@H]1C
-0.3	-4.4	0.3	Cc1noc(C)c1S(=O)(=O)Nc1ccc2c(c1)CC(=O)N([C@H](C)CO)C[C@H](C)[C@@H](CN(C)Cc1ccccc1)O2
0.3	-2.7	-2.3	C[C@@H]1CCCCO[C@H](CN(C)Cc2ccc(C(=O)O)cc2)[C@@H](C)CN([C@H](C)CO)C(=O)c2cc(NC(=O)c3ccncc3)ccc2O1
-1.4	4.9	0.2	C[C@H](CO)N1C[C@H](C)[C@@H](CN(C)S(=O)(=O)c2cccs2)Oc2ccc(NC(=O)CCCN(C)C)cc2C1=O
5.3	8.8	-1.7	C[C@H]1CN([C@@H](C)CO)C(=O)c2cc(-c3cccc(C#N)c3)cnc2O[C@H]1CN(C)Cc1cncnc1
-0.3	8.0	-1.9	O=C(C1CC1)N1[C@H](CO)[C@H]2c3ccccc3NC[C@H]21
-1.0	7.6	0.1	C[C@H]1CN([C@@H](C)CO)C(=O)c2cccc(NC(=O)NC3CCCCC3)c2O[C@@H]1CN(C)CC1CC1
9.0	11.3	-0.6	CNC[C@@H]1OCCCC[C@@H](C)Oc2ccc(NC(=O)CCCN(C)C)cc2C(=O)N([C@H](C)CO)C[C@H]1C
1.0	-26.3	1.7	O=C(C1CCOCC1)N1CC(=O)N2[C@H](C1)[C@@H](c1ccc(C#Cc3cccc(F)c3)cc1)[C@@H]2CO
-3.7	-2.9	-0.7	COc1ccc(-c2ccc3c(c2)[C@@H]2[C@@H](CCN2C(=O)c2cnccn2)[C@@H](CO)N3)cc1
-23.0	-65.3	27.5	C[C@H](CO)N1C[C@H](C)[C@@H](CN(C)C)Oc2cc(C#Cc3cccc(F)c3)ccc2S1(=O)=O
6.1	12.3	-0.6	O=C(C1CCOCC1)N1CC(=O)N2[C@H](C1)[C@H](c1ccc(C#CC3CCCC3)cc1)[C@@H]2CO
1.3	14.2	-1.8	O=C(O)C[C@H]1C[C@H]2c3cc(NS(=O)(=O)c4ccccc4)ccc3O[C@H]2[C@@H](CO)O1
-1.9	3.8	-0.2	C[C@H](CO)N1C[C@H](C)[C@H](CN(C)S(=O)(=O)c2ccccc2)Oc2ccc(NC(=O)CCN3CCOCC3)cc2CC1=O
1.5	8.6	1.8	O=C(C[C@@H]1C[C@H]2c3cc(NC(=O)NC4CCCC4)ccc3O[C@H]2[C@@H](CO)O1)NCCc1ccccc1
-0.9&2.6	-5.7&7.6	2.2&1.6	O=C(C[C@@H]1C[C@@H]2c3cc(NS(=O)(=O)c4ccc(F)cc4)ccc3O[C@@H]2[C@H](CO)O1)NCc1ccc(Oc2ccccc2)cc1
-11.3	-3.0	7.5	COc1ccc(C#Cc2ccc3c(c2)[C@@H]2[C@@H](CCN2S(=O)(=O)c2ccccc2C)[C@@H](CO)N3C)cc1
-26.1	-65.6	-1.9	COc1cccc(NC(=O)C2(C)CCN2Cc2ccccc2Cl)c1 (stereo unspecified)
-3.5	-6.3	0.4	COc1cccc(CN2[C@@H](CO)[C@@H](c3ccccc3)C23CN(C(=O)C2CC2)C3)c1
-3.3	-15.0	-0.8	COc1cc(CN2CC3(CN(S(=O)(=O)c4cccc(F)c4)C3)c3c([nH]c4cc(OC)ccc34)[C@@H]2CO)cc(OC)c1
-7.1	-4.9	6.1	CC(C)(C)CNC(=O)C1(C)CCN1C(=O)C1(c2ccccc2)CC1 (stereo unspecified)
2.0	-0.9	-2.9	Cc1ccc(S(=O)(=O)N[C@@H]2CC[C@H](CCNS(=O)(=O)Cc3ccccc3)O[C@@H]2CO)cc1
3.3	3.7	-3.1	C[C@H](CO)N1C[C@H](C)[C@H](CN(C)CC2CC2)Oc2ccc(NC(=O)c3ccncc3)cc2C1=O
6.6	12.7	1.4	COc1cccc(C(NC(C)=O)c2nc(-c3ccc4c(c3)OCO4)cs2)c1 (stereo unspecified)
5.2	-3.0	4.7	CC(C)NC(=O)Nc1ccc2c(c1)C(=O)N([C@H](C)CO)C[C@H](C)[C@@H](CN(C)Cc1ccc(Cl)c(Cl)c1)OCCCC[C@@H](C)O2
-5.1	-4.7	1.6	C[C@H]1CN([C@@H](C)CO)C(=O)c2cccc(NC(=O)c3ccc(-c4nccs4)cc3)c2O[C@H]1CN(C)S(=O)(=O)c1ccccc1
-32.7	-40.1	-11.7	Cc1ccc(CN2C(=O)C(F)(F)Oc3ccccc32)cc1
0.7	17.3	-3.0	C[C@@H]1CN([C@H](C)CO)C(=O)c2cc(C#CC3(O)CCCC3)cnc2O[C@@H]1CN(C)S(=O)(=O)c1ccccc1
0.8	-4.9	-0.1	COc1ccc(CN(C)C[C@@H]2OCCCC[C@H](C)Oc3ccc(NC(=O)C4CCCCC4)cc3C(=O)N([C@H](C)CO)C[C@@H]2C)cc1
1.3	2.7	2.7	O=C(C[C@@H]1CC[C@@H]2[C@H](COC[C@H](O)CN2Cc2cc(F)cc(F)c2)O1)NC1CCCC1

7 compounds drawn at random from the list so far:
rRNA inh HTS	rRNA inh HTS OD600	rRNA inh HTS RFP	SMILES
3.3	3.7	-3.1	C[C@H](CO)N1C[C@H](C)[C@H](CN(C)CC2CC2)Oc2ccc(NC(=O)c3ccncc3)cc2C1=O
-26.1	-65.6	-1.9	COc1cccc(NC(=O)C2(C)CCN2Cc2ccccc2Cl)c1 (stereo unspecified)
6.1	12.3	-0.6	O=C(C1CCOCC1)N1CC(=O)N2[C@H](C1)[C@H](c1ccc(C#CC3CCCC3)cc1)[C@@H]2CO
1.0	-26.3	1.7	O=C(C1CCOCC1)N1CC(=O)N2[C@H](C1)[C@@H](c1ccc(C#Cc3cccc(F)c3)cc1)[C@@H]2CO
1.5	8.6	1.8	O=C(C[C@@H]1C[C@H]2c3cc(NC(=O)NC4CCCC4)ccc3O[C@H]2[C@@H](CO)O1)NCCc1ccccc1
-1.9	3.8	-0.2	C[C@H](CO)N1C[C@H](C)[C@H](CN(C)S(=O)(=O)c2ccccc2)Oc2ccc(NC(=O)CCN3CCOCC3)cc2CC1=O
-23.0	-65.3	27.5	C[C@H](CO)N1C[C@H](C)[C@@H](CN(C)C)Oc2cc(C#Cc3cccc(F)c3)ccc2S1(=O)=O

Gathered by group: the compounds so far containing bromine.
rRNA inh HTS	rRNA inh HTS OD600	rRNA inh HTS RFP	SMILES
-5.6	-1.3	-1.2	COc1ccc(S(=O)(=O)N(C)C[C@H]2Oc3ncc(Br)cc3C(=O)N([C@@H](C)CO)C[C@@H]2C)cc1
9.3	12.0	-2.5	CC(=O)Nc1ccc(S(=O)(=O)N[C@@H](C)C(=O)OCC(=O)c2ccc(Br)s2)cc1

Other results
rRNA inh HTS	rRNA inh HTS OD600	rRNA inh HTS RFP	SMILES
1.9	0.2	-3.0	CCCNC(=O)C[C@@H]1C[C@@H]2c3cc(NC(=O)Nc4ccccc4F)ccc3O[C@@H]2[C@H](CO)O1
-3.7	-3.8	-1.8	O=S1(=O)CC(N2CC=CC2)CN1Cc1cn(Cc2cccc(Cl)c2)nn1 (stereo unspecified)
1.7	-2.4	3.5	COCC#Cc1ccc([C@@H]2[C@@H](C#N)N(C(=O)NC3CCCCC3)[C@@H]2CO)cc1
1.6	-1.4	-1.3	CCNC(=O)C[C@H]1C=C[C@@H](NS(=O)(=O)c2ccc(F)cc2)[C@@H](CO)O1
-8.8	-6.3	3.2	Cc1cc(C(=O)Nc2cccc3c2O[C@@H](CN(C)CC2CCCCC2)[C@H](C)CN([C@@H](C)CO)C3=O)n(C)n1
-57.7	-82.2	-16.6	C[C@H](CO)N1C[C@H](C)[C@@H](CN(C)Cc2ccc(-c3ccccc3)cc2)Oc2ccc(NC(=O)CCCN(C)C)cc2CC1=O
2.5	4.2	8.5	C[C@H](CO)N1C[C@H](C)[C@H](CN(C)C)Oc2cc(C#Cc3ccccc3)ccc2S1(=O)=O
3.4	8.3	0.7	C[C@H](O)C#Cc1ccc2c(c1)O[C@H](CN(C)CC1CCOCC1)[C@H](C)CN([C@@H](C)CO)S2(=O)=O
3.4	2.7	1.0	COc1cccc(NC(=O)CSCc2nc3sc(C)c(C)c3c(=O)[nH]2)c1
-0.7	1.9	0.8	Cc1noc(C)c1S(=O)(=O)N(C)C[C@@H]1OCc2ccccc2-c2c(n(C)c3ccccc23)C(=O)N([C@H](C)CO)C[C@@H]1C
-1.3	-5.7	-2.3	CO[C@@H]1CN(C)C(=O)c2cc(NC(=O)NC(C)C)ccc2OC[C@@H](C)N(C(=O)CC2CC2)C[C@H]1C
-4.2	-4.9	3.2	COc1ccc(C(=O)N/C(=C\c2cn(S(=O)(=O)N(C)C)c3ccccc23)C(=O)N2CCCC2)cc1
8.7	-2.3	15.2	Clc1cccc(Cc2c(-c3ccco3)nc3ccc(Br)cn23)c1
-63.9	-80.5	-18.6	CC(O)(c1ccc(F)c(F)c1)c1nc(-c2ccc(Cl)cc2)cs1 (stereo unspecified)
5.4	14.2	-3.1	NC(c1ccccc1)c1csc(Nc2ccc(S(N)(=O)=O)cc2)n1 (stereo unspecified)
-3.3	1.3	0.6	CO[C@@H]1CN(C)C(=O)c2ccc(NC(=O)C3CC3)cc2OC[C@H](C)N(Cc2ccc(F)cc2)C[C@@H]1C
-1.4	1.0	-1.1	CCCNC(=O)[C@@H]1[C@@H](CO)[C@@H]2Cn3c(cccc3=O)[C@@H]2N1Cc1ccccc1Cl
2.6	6.1	0.9	C[C@@H]1CN([C@H](C)CO)C(=O)Cc2cc(NC(=O)CCC(F)(F)F)ccc2O[C@@H]1CN(C)C
-34.0	-65.7	-5.9	CC(=O)N1CCc2cc(NC(=O)C3(C)CCN3Cc3ccccc3OC(F)F)ccc21 (stereo unspecified)

Screens from PubChem BioAssay.
